High-throughput results: PubChem, several laboratories
Vif A3G – HIV-1 Vif–A3G interaction blockers – biochemical, TR-FRET, GST-Vif 1-94, biotin-A3G peptide, dose response retest, primary screen (AID 1117319). TR-FRET GST-Vif / biotin-A3G peptide binding; higher % means a stronger effect; test concentration not given here; strong numbers were not always called active. inhibition, %; hits with a dose series show IC50 in µM. 260,000 compounds, 0.57% hits;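 active means above the screen mean plus three standard deviations and confirmed in dose response; inconclusive means results disagree or hit not tested in dose response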;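 further: Vif residues 1-94 fused to GST binding biotinylated APOBEC3G peptide 110-148; 0% = full assay without inhibitor and 100% = GST in place of GST-Vif; retest series ran down from 100 µM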
LANA-H2A inh – blocks KSHV LANA binding to histone H2A/H2B; inhibition, % (no concentration beside the values); cell-free LANA-H2A/H2B peptide, fluorescence polarization; Q9QR71; 320,000 compounds, 0.6% hits; in the data active means inhibition mostly above about 10%, no sharp cut-off; inactive means mostly below about 6.7%;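 further: stock transfer was 7.5 nL into about 10 µL; 0% = median of vehicle wells and 100% = median of positive control wells; one replicate is shown; the record names a cut of 25% in any replicate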
Target sequence (Q9QR71 whole entry, looked up): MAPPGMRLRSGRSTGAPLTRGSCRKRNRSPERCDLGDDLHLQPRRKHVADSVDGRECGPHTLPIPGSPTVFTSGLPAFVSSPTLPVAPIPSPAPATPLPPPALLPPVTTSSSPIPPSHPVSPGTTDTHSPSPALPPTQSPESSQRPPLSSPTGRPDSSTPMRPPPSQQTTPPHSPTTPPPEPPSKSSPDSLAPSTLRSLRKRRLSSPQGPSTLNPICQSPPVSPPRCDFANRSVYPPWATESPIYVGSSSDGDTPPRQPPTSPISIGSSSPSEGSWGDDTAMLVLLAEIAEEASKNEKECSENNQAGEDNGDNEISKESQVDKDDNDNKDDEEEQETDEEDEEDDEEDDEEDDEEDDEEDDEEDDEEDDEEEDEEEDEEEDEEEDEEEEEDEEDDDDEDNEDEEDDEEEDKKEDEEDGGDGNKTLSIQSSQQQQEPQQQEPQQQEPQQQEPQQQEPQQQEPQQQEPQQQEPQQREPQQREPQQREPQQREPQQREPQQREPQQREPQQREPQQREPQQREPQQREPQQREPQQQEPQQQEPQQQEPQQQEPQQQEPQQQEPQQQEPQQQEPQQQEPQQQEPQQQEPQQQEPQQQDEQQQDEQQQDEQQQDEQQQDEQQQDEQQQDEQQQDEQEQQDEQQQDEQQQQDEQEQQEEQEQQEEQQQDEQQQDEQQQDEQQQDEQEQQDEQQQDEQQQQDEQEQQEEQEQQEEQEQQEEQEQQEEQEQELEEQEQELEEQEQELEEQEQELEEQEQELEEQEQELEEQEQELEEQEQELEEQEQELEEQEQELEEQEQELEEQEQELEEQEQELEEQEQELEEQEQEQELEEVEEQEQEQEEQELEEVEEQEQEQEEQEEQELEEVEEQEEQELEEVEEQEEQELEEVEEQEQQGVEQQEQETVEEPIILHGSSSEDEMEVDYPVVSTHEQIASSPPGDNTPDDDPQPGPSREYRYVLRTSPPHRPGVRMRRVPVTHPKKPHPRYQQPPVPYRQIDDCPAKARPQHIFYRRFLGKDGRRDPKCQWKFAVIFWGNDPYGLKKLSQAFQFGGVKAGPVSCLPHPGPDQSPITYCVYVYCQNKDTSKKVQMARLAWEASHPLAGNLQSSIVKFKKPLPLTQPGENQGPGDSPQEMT
Calb FLC – C. albicans growth modulation with fluconazole; AID 1979; C. albicans CaCi-2 (fluconazole-resistant clinical isolate) + fluconazole, Alamar Blue growth, 48 h; 300,000 compounds, 0.57% hits; growth inhibition, % (concentration not given with the values);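 active means most replicates above 75%; inconclusive means exactly half above 75%; inactive means most below 75%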;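 further: all wells also contain fluconazole at 8 µg/ml as a sub-toxic cotreatment; 0% = median of DMSO wells and 100% = median of geldanamycin control wells; wells of about 8 µL received 7.5 nL stock; the first replicate is given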
Beta apoptosis – beta cell apoptosis inhibition; 300,000 compounds, 0.8% hits; INS-1E cytokine-induced death, ATP luminescence, 48 h; percent of positive-control rescue, neutral wells zero; protection from apoptosis, % (test concentration not listed);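 active means all replicates at 75% or more, or half of them and the mean; inconclusive means half reach 75% but not the mean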;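 further: 0% = cytokine-treated negative control wells and 100% = positive control rescue; higher means more ATP so stronger rescue from cytokine killing; wells of about 40 µL received 100 nL stock; the first replicate is given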
Bfl-1 A1 inh – inhibitors of the anti-apoptotic protein A1, read as caspase activation. MEF A1-2A-BIM cells, Caspase-Glo 3/7 luminescence, 3 h; percent of clofoctol response, vehicle zero. 330,000 compounds, 0.066% hits. AID 2462. caspase activation, % (no concentration beside the values);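 active means over half of replicate activation scores above 10%, or exactly half above 10 with the replicate mean above 10; inconclusive means replicate mean below 10 yet half the replicates above 10; inactive means over half of replicates below 10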;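 further: wells of about 30 µL received 50 nL stock; many hits fall short of the cut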
AF4-AF9 inh – inhibitors of human MLL-AF4/AF9 interaction; P42568; AlphaScreen, biotin-AF4 peptide binding to FLAG-AF9; inhibition, % at 10 µM; 350,000 compounds, 0.47% hits; AID 651704;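 active means every replicate reaching a set inhibition limit, whatever the replicate mean, cut at about 25% in these data; inconclusive means mean inhibition reaches that limit but some replicates miss it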;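 further: 0% = plate neutral control median and 100% = total signal loss; the record names both 10 and 1 µM as test concentration; the first replicate is given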
T cruzi inh – blocks replication of Trypanosoma cruzi; T. cruzi beta-gal in NIH3T3, luminescence, 90 h; 300,000 compounds, 1.4% hits; inhibition, % (no concentration beside the values);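 active means mean inhibition across valid replicates above about 55%, limit read from the data; inconclusive means mean below that limit but half or more replicates reach it; inactive means mean below it, under half of replicates reach it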;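 further: signal also drops with host cell toxicity which is not excluded here; 0% = plate median of DMSO wells and 100% = zero luminescence signal; higher percent means less beta-gal luminescence so fewer parasites; stock transfer was 50 nL into about 50 µL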
RanGTP-Imp inh – inhibitors of RanGTP-importin-beta interaction, primary screen, biochemical, FRET, CFP-Ran, YFP-importin-beta, homogeneous; cell-free CFP-Ran/YFP-importin-beta FRET ratio; inhibition, % (test concentration not listed); 300,000 compounds, 1.1% hits;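 active means most replicates above 15%; inconclusive means exactly half above 15%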;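 further: 0% = DMSO wells and 100% = Ran loaded with GDP instead of GTP; wells of about 40 µL received 100 nL stock; the first replicate is given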
Active calls of the source: *; ? = inconclusive; . = not tested or not shown.

Molecule | Vif A3G | LANA-H2A inh | Calb FLC | Beta apoptosis | Bfl-1 A1 inh | AF4-AF9 inh | T cruzi inh | RanGTP-Imp inh
CN(C)N=Nc1ccc(S(N)(=O)=O)cc1 | 9.4% | 6.6 | 18.4 | 0.2 | 1.4 | 1.4 | 9.6 | ?
CCNc1nc(Sc2ccc(C)cc2)cc(C(F)(F)F)n1 | 0.1% | -1.5 | -4.5 | 0.9 | 0.1 | . | 2.9 | 1.2
OCCc1c[nH]c2ccc(C(F)(F)F)cc12 | . | -0.2 | 9.3 | -6.2 | 1.7 | -8.8 | -17.0 | 1.7
CCC(=O)N1CCN(c2ccccc2NC(=O)c2ccc([N+](=O)[O-])o2)CC1 | . | -4.4 | 2.5 | -2.2 | 0.9 | 5.4 | 22.7 | 2.0
CCN(CC)C(=O)Cn1cc(C(=O)C(=O)N2CCN(c3ccc(OC)cc3)CC2)c2ccccc21 | . | 2.2 | 20.5 | 12.2 | 1.0 | 2.3 | -13.3 | -3.9
CC(C)(C)[C@H]1C=C(C(=O)O)O[C@@H](OCc2ccc(CO)cc2)C1 | . | -1.8 | -7.6 | -10.9 | 0.5 | -11.7 | -16.8 | 0.3
COc1ccccc1NC(=O)CCCn1c(=S)[nH]c2ccccc2c1=O | -32.9% | 2.0 | -5.4 | -4.8 | 0.8 | -0.2 | 3.3 | -1.4
Cc1ccc2c(C(=O)CN3CCCC3)c(C)[nH]c2c1 | -0.7% | 1.4 | -11.1 | -3.2 | 0.2 | . | -2.0 | 3.0
CCCCN(C(=O)CSc1cc(C)c2ccc(OC)cc2n1)c1c(N)n(Cc2ccccc2)c(=O)[nH]c1=O | ? | -2.8 | 19.1 | -7.8 | 0.3 | -5.4 | 2.4 | 5.4
Cc1ccc(S(=O)(=O)Nc2nc(C)c(C(=O)NNS(=O)(=O)c3cc(C)ccc3C)s2)cc1 | 6.7% | -0.5 | -6.8 | -8.7 | 0.0 | -0.8 | -1.1 | 4.6
Cc1c(C(=O)NC(=S)NCc2cccnc2)cccc1[N+](=O)[O-] | . | 0.4 | 17.1 | 3.0 | -0.1 | 1.9 | 2.9 | 2.7
Cc1ccc(CNc2nc3ccc(C)cc3n3cnnc23)cc1 | 2.7% | -1.5 | 1.6 | . | 0.1 | 8.8 | -0.6 | -4.7
Cc1cc(C)n2nc(SCC(=O)N(CCC#N)c3ccc(F)cc3)nc2n1 | -7.4% | 6.1 | . | 1.1 | -0.7 | 0.5 | . | .
CC(=O)Nc1ccc(S(=O)(=O)N2CCN(S(=O)(=O)c3ccc(NC(C)=O)cc3)CC2)cc1 | -4.0% | 0.6 | 0.1 | -3.8 | -0.8 | -4.2 | -8.0 | 1.7
Cc1ccc(NC(=O)CCC(=O)c2ccc(Cl)s2)nc1 | 16.4% | . | . | -2.2 | -0.6 | 0.2 | . | .
O=C(N/N=C/c1cccnc1)c1cc(-c2ccccc2Cl)nc2ccccc12 | -0.1% | 8.9 | 0.0 | 50.7 | -0.2 | 6.1 | 6.9 | -4.5
COc1cccc(CN(C)CC(O)COc2cc(Cl)ccc2Cl)c1 (stereo not drawn) | -1.5% | 4.4 | 0.5 | 0.5 | 0.2 | 3.4 | 43.0 | 1.5
Cc1cc(C)c(O)c(-c2cc(C(=O)Nc3c(C)n(C)n(-c4ccccc4)c3=O)[nH]n2)c1 | -5.6% | -2.4 | 7.5 | 4.9 | -0.8 | 1.8 | -15.1 | ?
Cc1ccc(-c2c[n+](CC(=O)Nc3c(C)cccc3C)c3n2CCC3)cc1 | 32.3% | 4.7 | -31.2 | -4.8 | -0.5 | -0.3 | -12.7 | -1.2
CC(C)Cc1nnc(NC(=O)CN2C(=O)NC3(CCCC3)C2=O)s1 | -2.0% | -2.5 | 4.4 | -2.4 | 0.2 | -1.4 | -5.6 | -0.2
CCN(CC)C(=O)c1[nH]cnc1C(=O)NCC(=O)OC(C)(C)C | . | -1.2 | -2.5 | -0.3 | -0.1 | -1.6 | -16.2 | 4.4
Cc1cc(C)nc(SCSc2nc(C)cc(C)n2)n1 | 1.2% | . | -7.5 | . | . | 7.2 | 8.4 | 0.5
CCCCCn1c(=O)c(-c2nc3ccccc3[nH]2)c(O)c2ccccc21 | 6.1% | -4.6 | 4.4 | 31.7 | -0.4 | -0.2 | -3.3 | 6.0
CC(C)(C)NC(=O)CSc1nnc(C2CC2)n1-c1ccccc1 | 3.3% | 0.6 | -3.7 | -2.9 | 1.8 | 2.9 | -1.3 | 52.2*
O=C(O)C1CCCCC1C(=O)NCCCCc1ccccc1 (stereo not drawn) | 17.1% | -2.9 | -10.7 | -1.0 | 0.0 | . | 0.6 | -5.1
COc1ccccc1N(C(=O)c1ccco1)C(C(=O)NC1CCCC1)c1ccncc1 (stereo not drawn) | . | 2.9 | -0.4 | -0.9 | -0.2 | -1.7 | -11.7 | -0.7
O=c1c2cc(NC(=S)NC3CC3)ccc2nc2n1CCCCC2 | 2.7% | -0.1 | -0.8 | 4.2 | 0.6 | -1.9 | 1.9 | -2.5
Cc1ccc(-c2ccc(C#N)c(=O)n2CC(=O)N(C)C)cc1 | -2.2% | 0.7 | 24.2 | -3.8 | -0.1 | -0.7 | -0.3 | -3.2
O=C(Nc1ccccc1)N1CCN(CCc2ccccc2)CC1 | -1.3% | -3.7 | -9.1 | 2.7 | 0.8 | -0.3 | -4.8 | 1.6
COc1ccccc1C(=O)NCCC(=O)NCC1CCCCC1 | -8.3% | 4.8 | . | -5.2 | 0.1 | -2.4 | . | .
COC(=O)c1ccccc1Sc1c(/C=N/OCc2ccc(Cl)cc2)c(C(F)(F)F)nn1C | 20.2% | -3.1 | 17.5 | 5.5 | 0.0 | . | 44.0 | 0.6
CCc1c(C)nc(N2CCOCC2)[nH]c1=O | -1.7% | 0.6 | -8.0 | -1.3 | -0.3 | . | -8.2 | -0.4
CCOc1ccccc1NC(=O)COC(=O)C1CCC(=O)N1 (stereo not drawn) | 11.2% | 0.3 | . | -8.0 | 0.2 | -3.3 | . | .
Cc1ccc(-c2ccc(S(=O)(=O)N3CCN(C)CC3)cc2)cc1 | 9.6% | -0.4 | -29.9 | -2.5 | -0.1 | . | 11.5 | -0.1
Cc1ccccc1C(=O)Nc1ccnn1C1CCN(C(=O)c2ccoc2)CC1 | -0.4% | -1.2 | -17.9 | -2.6 | -0.1 | 0.5 | -16.4 | -3.8
COCC(=O)N1CCC(Oc2ccc(C(=O)N(C)CCCC3CCCC3)cc2)CC1 | . | 15.9* | -0.1 | 5.9 | 1.4 | 9.0 | 3.0 | -2.8
CC(=O)Nc1ccc(/C=C(\C#N)S(=O)(=O)c2ccc(C)cc2)cc1 | -1.6% | 2.9 | . | -11.5 | 1.0 | -7.0 | . | .
O=C(Nc1cccc(Cl)c1)C1CCN(C(=O)c2cccs2)CC1 | . | 5.0 | 2.5 | 6.4 | 1.0 | 0.1 | 3.4 | 6.1
O=C(c1cc(=O)c2ccccc2o1)N1CCCc2ccccc21 | 6.6% | -1.9 | -4.8 | -3.1 | -0.5 | . | 4.4 | 2.5
O=C(NC(=S)Nc1cc(C(F)(F)F)ccc1N1CCOCC1)c1sc2ccccc2c1Cl | . | -4.6 | -5.1 | 8.1 | -0.7 | 1.1 | -5.6 | 8.6
COc1ccc(CCNC(=O)c2cnc3scc(C)n3c2=O)cc1OC | -3.2% | -3.8 | 6.9 | -0.9 | 0.4 | 0.3 | -9.9 | -0.9
Cc1ccc(/C=N/n2c(C)nc3ccccc3c2=O)s1 | -9.5% | -4.0 | 33.3 | 1.8 | 0.9 | . | -2.9 | 5.0
CC(C)OC(=O)c1cccc(-c2ccc(C=O)o2)c1 | -2.4% | -1.5 | 53.6 | -6.9 | 1.2 | . | -14.2 | 0.3
CCCc1cc(C(=O)Nc2sc3c(c2C#N)CCC3)no1 | 5.2% | -1.7 | 84.1* | 1.7 | 0.5 | 1.5 | 6.1 | 6.9
Cn1c(SCCOc2ccc(Cl)cc2)nnc1-c1ccncc1 | 3.6% | 5.1 | -4.2 | 2.3 | -0.3 | . | 19.8 | -4.0
CC(=O)C1=C(O)CC(C)(C)CC1=NCc1nc2ccccc2[nH]1 | 2.1% | 12.6 | -2.0 | -5.0 | -0.4 | -0.5 | -3.8 | 0.1
C=CCNCCCOc1ccc(C)cc1Br | . | 1.0 | -20.9 | 3.3 | -0.8 | . | 18.0 | 3.2
O=C(CNC(=O)c1ccc(OC(F)F)cc1)NCc1ccccn1 | -1.6% | -5.2 | 0.9 | . | 0.9 | -6.0 | 1.1 | -2.0
COc1ccc(NC(=O)C(=O)NCc2ccncc2)c(OC)c1 | ? | -0.9 | -4.8 | -1.3 | 1.0 | . | -2.6 | 1.2
COc1ccc(-c2[nH]ncc2CN2CCCCCCC2)c(OC)c1 | -11.3% | 1.5 | 6.4 | -7.5 | 0.0 | 12.8 | 6.0 | 5.6
O=C(CSc1nnc(-c2ccccc2)o1)NC1CCCC1 | 0.5% | -1.3 | -5.8 | 0.2 | -0.4 | -2.1 | 1.3 | 5.1
CCc1cccc(NC(=S)N(CCCN2CCOCC2)C(C)c2cc3cccc(OC)c3o2)c1 (stereo not drawn) | 26.4% | 1.3 | 5.2 | -7.2 | -0.4 | 6.4 | 11.3 | -1.5
CCc1ccc(C(=O)NNc2ccc(C)c(Cl)c2)cc1 | -1.4% | 0.1 | -8.5 | 21.2 | 0.0 | 2.8 | ? | 2.8
COCCCNc1nc2ccccc2nc1NS(=O)(=O)c1ccc(C)cc1 | -9.6% | 6.7 | 18.4 | -2.7 | 0.2 | 2.4 | -21.9 | 6.0
COc1ccc(CCNC(=O)c2ccccc2)cc1 | -1.2% | -3.1 | 4.7 | . | -0.4 | -3.8 | -14.4 | 8.0
Cc1n[nH]c(=O)c2c(NC(=O)CSc3nc4ccccc4c(=O)n3CCCOC(C)C)oc(C)c12 | . | 2.8 | -4.4 | -4.6 | 0.2 | 0.9 | 0.0 | 0.1
COCC1CCCN(C(=O)c2ccc3oc(CCCc4ccccc4)nc3c2)C1 (stereo not drawn) | -7.3% | 0.5 | -3.8 | 6.0 | -0.1 | 3.3 | 1.2 | -1.8
COc1ccc(OC(=O)c2cnn(-c3ccccc3)c2C)cc1 | 4.7% | 3.3 | -14.9 | -7.6 | -4.4 | . | 10.3 | 5.3
CCCCNC(=O)C1CCN(C(=O)C2CCN(S(=O)(=O)c3ccc(C)cc3)CC2)CC1 | . | 12.6* | 13.5 | 0.2 | 0.0 | 1.0 | -10.5 | -1.1
Cc1nc(N2C(=O)C(=O)/C(=C(/O)c3ccccc3)C2c2ccco2)sc1C (stereo not drawn) | 9.6% | -4.8 | -4.9 | 1.2 | 0.5 | . | -4.1 | 0.0
CS(=O)(=O)c1ccc(-c2cc(Br)sc2-c2ccc(F)cc2)cc1 | . | -3.7 | . | 17.2 | -0.2 | . | 27.4 | ?
